Screening data as filed in PubChem.
miR-21 FLuc: raises the signal of a miR-21 reporter | AID 2288 | 340,000 tested, under 10 active | Potency, µM (series often up to 38.3 µM), for the others: at the highest dose reporter change, positive = more light | HeLa miR-21 FLuc reporter, luciferase, 48 h; active = well fitted rising curve with a large enough effect; inconclusive = small, poorly fitted or top-dose-only effect; inactive = no such curve, though single readings can be large or run the other way;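 further: % of control where 0% means no effect; miR-21 action dims this reporter so a rising signal means less miR-21 action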
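Compounds were titrated across several concentrations (up to approximately 40 uM) and incubated 48 hours with HeLa miR-21-FLuc reporter cells (miR-21 target sequence downstream of FLuc, endogenous miR-21). Readout was firefly luciferase luminescence after lytic detection reagent.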
GLA inh pH 4.5: blocks human alpha-galactosidase A at pH 4.5; P06280; purified enzyme, 4-MU-alpha-Gal fluorescence, pH 4.5; activity change, negative = inhibition, % at 105 µM; 230,000 tested, under 10 active; inconclusive = small, poorly fitted or top-dose-only inhibition, or a rising curve; inactive = flat fitted curve, though single readings scatter; no compound was filed as active;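 further: 0% = full activity with enzyme and -100% = basal without enzyme; dose as in the result columns while the protocol names 77 µM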
Target sequence (P06280 whole entry, looked up): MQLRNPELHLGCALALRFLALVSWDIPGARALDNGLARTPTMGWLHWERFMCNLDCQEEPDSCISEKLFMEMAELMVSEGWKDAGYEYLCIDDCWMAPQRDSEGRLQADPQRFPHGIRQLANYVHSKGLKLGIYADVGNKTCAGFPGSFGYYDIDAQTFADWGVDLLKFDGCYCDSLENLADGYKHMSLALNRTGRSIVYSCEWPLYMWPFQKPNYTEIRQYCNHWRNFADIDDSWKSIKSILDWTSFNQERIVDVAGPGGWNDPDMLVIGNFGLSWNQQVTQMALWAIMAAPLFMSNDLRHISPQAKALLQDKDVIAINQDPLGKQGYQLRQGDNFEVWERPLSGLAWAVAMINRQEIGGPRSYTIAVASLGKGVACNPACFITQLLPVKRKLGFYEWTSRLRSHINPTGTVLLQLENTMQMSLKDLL
Rango-impB inh: prevents formation of the Rango-importin beta complex; actives 0.031% (n = 340,000); Rango CFP/YFP FRET sensor + importin beta, 45 min; Potency, µM (titrated, usually from 92.2 µM), without a hit: top-dose inhibition of complex formation; Q14974; active = rising FRET ratio curve, often small or poorly fitted; inconclusive = mostly compound fluorescence or quenching in the first reads; inactive = flat curves in all reads;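 further: potency means the concentration at half of the fitted maximal effect; 0% = DMSO wells and 100% = buffer wells lacking importin beta; nearly all actives have a fitted effect of over 15% in size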
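FRET biosensor (snurportin 1 IBB flanked by EYFP and cerulean), 50 nM, with compound 5 min, then 0.125 microM importin beta in PBS, 1 mM DTT, 0.02% Tween-20, 0.1% BSA. CFP/YFP ratio read after 45 min at room temperature; pre-read flags interference.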
Rango dissoc inh: inhibitors of RanGTP-induced Rango-importin beta complex dissociation | Potency, µM (top dose mostly 46.1 µM), without a hit: top-dose activity change, negative = inhibition | O95149+P62826 | Biochemical FRET Rango-importin beta, RanGTP-induced dissociation | actives 0.071% (n = 340,000); active means falling FRET ratio curve, often poorly fitted, with flat reads before Ran was added; inconclusive means other falling curves, or compound fluorescence or quenching; inactive means flat or rising ratio curve;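 further: potency means the concentration at half of the fitted maximal effect; % of control where 0% means no effect; nearly all actives have a fitted effect of over 45% in size; -100% = wells without RanGTP and RCC1; the record marks most hits as doubtful in a second field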
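Compounds sat 5 min at room temperature with 0.1 uM Rango biosensor plus 0.25 uM importin beta, then FRET pre-read. RanGTP-RCC1 (0.6 uM Ran, 2mM GTP, 0.2 uM RCC1) added for 45 min, and the CFP/YFP post-read measured blocked complex dissociation.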
The depositor's hits bear a star. This is a subset; rates above refer to the full screens.

`Cc1ccc(C(=O)OCC(=O)Nc2ccc3[nH]c(=O)[nH]c3c2)cc1[N+](=O)[O-]` gave miR-21 FLuc -2.7%, GLA inh pH 4.5 4.4, Rango-impB inh 9.2% and Rango dissoc inh -12.6%.
O=C(NCc1ccco1)c1ccc(Cn2c(=O)c3sccc3n(Cc3ccc(F)cc3)c2=O)cc1 was read as miR-21 FLuc -14.6%, GLA inh pH 4.5 3.5, Rango-impB inh -3.2% and Rango dissoc inh inconclusive.
For CN(Cc1ccccc1F)C(=O)c1ccc(NC(=O)CC2SC(N3CCCCC3)=NC2=O)cc1 (stereo unspecified) the results were Rango-impB inh inconclusive and Rango dissoc inh -26.0%.
`O=C(O)CCSc1ccccn1` gave miR-21 FLuc -9.3%, GLA inh pH 4.5 2.1, Rango-impB inh 2.5% and Rango dissoc inh -3.7%.
Screening O=C(Nc1ccc(F)cc1F)c1ccc(S(=O)(=O)NCc2ccco2)cc1 returned Rango-impB inh 0.3% and Rango dissoc inh -1.3%.
`O=C(O)CCC(=O)c1ccc2c(c1)OCCCO2` gave miR-21 FLuc -4.1%, GLA inh pH 4.5 -9.5, Rango-impB inh -0.6% and Rango dissoc inh -10.3%.
Nc1ccc(S(=O)(=O)NN=CC=Cc2ccccc2[N+](=O)[O-])cc1 was read as Rango-impB inh 1.5% and Rango dissoc inh -8.8%.
`O=C(Nc1cccc(NC(=O)c2ccco2)c1)c1ccc2c(c1)OCO2` gave miR-21 FLuc -14.2%, GLA inh pH 4.5 -26.5, Rango-impB inh 2.7% and Rango dissoc inh -8.5%.
For CCC(Sc1nncn1C)C(=O)Nc1ccccc1OC (stereo unspecified) the results were miR-21 FLuc 1.2%, GLA inh pH 4.5 5.3, Rango-impB inh -5.8% and Rango dissoc inh inconclusive.
`CCc1n[nH]c(=S)n1/N=C/c1cccc2ccccc12` gave miR-21 FLuc -4.1%, Rango-impB inh -1.5% and Rango dissoc inh -0.9%.
O=C(CCCn1nnc2ccccc2c1=O)N[C@@H](Cc1ccccc1)C(=O)O was read as miR-21 FLuc 4.7%, GLA inh pH 4.5 -15.0, Rango-impB inh -2.0% and Rango dissoc inh 14.1%.
Screening Cc1ccc(CNC(=O)c2ccc(N3CCC4(CC3)CC(c3cccc(Br)c3)=NO4)c(NC(=O)c3ccc(Br)cc3)c2)cc1 returned Rango-impB inh -0.2% and Rango dissoc inh 1.1%.
For CCC1CCCCN1C(=O)Cn1c(C(=O)OC)cc2sc(Cl)cc21 (stereo unspecified) the results were miR-21 FLuc -5.8%, GLA inh pH 4.5 2.9, Rango-impB inh 0.1% and Rango dissoc inh -10.6%.
`COc1ccc(CC2(CO)CCN(S(=O)(=O)c3c(C)nn(C)c3Cl)CC2)cc1` gave miR-21 FLuc -5.2%, GLA inh pH 4.5 1.0, Rango-impB inh -1.5% and Rango dissoc inh -2.9%.
For COCCN(C(=O)CSc1nnc(-c2ccccc2OC)o1)c1c(N)n(CC(C)C)c(=O)[nH]c1=O the results were Rango-impB inh 6.0% and Rango dissoc inh 7.6%.

2 records picked at random from those above, as already listed:
Screening Cc1ccc(CNC(=O)c2ccc(N3CCC4(CC3)CC(c3cccc(Br)c3)=NO4)c(NC(=O)c3ccc(Br)cc3)c2)cc1 returned Rango-impB inh -0.2% and Rango dissoc inh 1.1%.
`CCc1n[nH]c(=S)n1/N=C/c1cccc2ccccc12` gave miR-21 FLuc -4.1%, Rango-impB inh -1.5% and Rango dissoc inh -0.9%.

(further entries)
Screening Cc1c(NC(=O)c2cc(-c3cccs3)nc3ccccc23)c(=O)n(-c2ccccc2)n1C returned miR-21 FLuc 16.3%, GLA inh pH 4.5 -8.6, Rango-impB inh -1.4% and Rango dissoc inh -0.8%.
O=C(CN1CCN(c2cccc(Cl)c2)CC1)Nc1ccc(S(=O)(=O)N2CCOCC2)cc1 was read as miR-21 FLuc 16.5%, Rango-impB inh -1.7% and Rango dissoc inh -9.0%.
`Cn1c(NCC2CCCO2)nc2c1c(=O)n(Cc1ccccc1)c(=O)n2C` (stereo unspecified) gave miR-21 FLuc -0.4%, GLA inh pH 4.5 -10.9, Rango-impB inh 0.4% and Rango dissoc inh -5.5%.
`CCOC(=O)C1=C(COC(=O)CCCOc2ccccc2)NC(=O)NC1C` (stereo unspecified) gave Rango-impB inh 0.3% and Rango dissoc inh 3.7%.
Screening O=C(Nc1ccccc1Cl)c1cc(S(=O)(=O)N2CCOCC2)cs1 returned miR-21 FLuc -2.4%, GLA inh pH 4.5 1.2, Rango-impB inh -1.0% and Rango dissoc inh 0.9%.
For Cc1cccc(Oc2ccc(N)cc2)c1 the results were miR-21 FLuc 1.5%, GLA inh pH 4.5 11.0, Rango-impB inh 0.2% and Rango dissoc inh 2.6%.
Screening NC(=O)c1cnn2c(C(F)(F)F)cc(-c3ccc(F)cc3)nc12 returned miR-21 FLuc -29.7%, GLA inh pH 4.5 -3.2, Rango-impB inh 5.3% and Rango dissoc inh -1.7%.
Cc1c(NC(=O)CSc2nnc(C(C)Oc3ccc(Cl)cc3)n2-c2ccccc2)c(=O)n(-c2ccccc2)n1C (stereo unspecified) was read as miR-21 FLuc 3.0%, GLA inh pH 4.5 -9.0, Rango-impB inh -0.3% and Rango dissoc inh 2.9%.
Cc1oc(-c2ccccc2Cl)nc1CN1CCCCC1CO (stereo unspecified) was read as miR-21 FLuc -2.9%, GLA inh pH 4.5 -6.6, Rango-impB inh -1.9% and Rango dissoc inh -4.8%.
For CCc1nc2sc(C#N)c(N)c2c2c1CCCC2 the results were Rango-impB inh 0.4% and Rango dissoc inh -4.5%.
CC1CCN(CC(O)COC2CC(C)CC(C)(C)C2)CC1 (stereo unspecified) was read as Rango-impB inh -3.2% and Rango dissoc inh -10.2%.
`Cn1cc(Br)c(C(=O)NC2CCCCCC2)n1` gave miR-21 FLuc -22.3%, Rango-impB inh -0.3% and Rango dissoc inh 31.0%.
`Cn1c(C(=O)N2CCCC(C(=O)O)C2)cc2sccc21` (stereo unspecified) gave miR-21 FLuc -1.1%, GLA inh pH 4.5 -2.3, Rango-impB inh -1.1% and Rango dissoc inh -1.7%.
CCOC(=O)C1Nc2c(F)cc(C)cc2C2c3ccccc3CC12 (stereo unspecified) was read as Rango-impB inh 7.8% and Rango dissoc inh -10.3%.
For O=C(Oc1ccccc1C(=O)Nc1ccccc1)c1ccc(Br)c([N+](=O)[O-])c1 the results were miR-21 FLuc -32.1%, GLA inh pH 4.5 7.3, Rango-impB inh 6.4% and Rango dissoc inh 11.2%.

Eleven compounds out of the list, sorted by SMILES length, ascending.
For CCC(Sc1nncn1C)C(=O)Nc1ccccc1OC (stereo unspecified) the results were miR-21 FLuc 1.2%, GLA inh pH 4.5 5.3, Rango-impB inh -5.8% and Rango dissoc inh inconclusive.
`CCc1n[nH]c(=S)n1/N=C/c1cccc2ccccc12` gave miR-21 FLuc -4.1%, Rango-impB inh -1.5% and Rango dissoc inh -0.9%.
`O=C(Nc1cccc(NC(=O)c2ccco2)c1)c1ccc2c(c1)OCO2` gave miR-21 FLuc -14.2%, GLA inh pH 4.5 -26.5, Rango-impB inh 2.7% and Rango dissoc inh -8.5%.
`Cn1c(NCC2CCCO2)nc2c1c(=O)n(Cc1ccccc1)c(=O)n2C` (stereo unspecified) gave miR-21 FLuc -0.4%, GLA inh pH 4.5 -10.9, Rango-impB inh 0.4% and Rango dissoc inh -5.5%.
Nc1ccc(S(=O)(=O)NN=CC=Cc2ccccc2[N+](=O)[O-])cc1 was read as Rango-impB inh 1.5% and Rango dissoc inh -8.8%.
O=C(CCCn1nnc2ccccc2c1=O)N[C@@H](Cc1ccccc1)C(=O)O was read as miR-21 FLuc 4.7%, GLA inh pH 4.5 -15.0, Rango-impB inh -2.0% and Rango dissoc inh 14.1%.
For O=C(Oc1ccccc1C(=O)Nc1ccccc1)c1ccc(Br)c([N+](=O)[O-])c1 the results were miR-21 FLuc -32.1%, GLA inh pH 4.5 7.3, Rango-impB inh 6.4% and Rango dissoc inh 11.2%.
`Cc1ccc(C(=O)OCC(=O)Nc2ccc3[nH]c(=O)[nH]c3c2)cc1[N+](=O)[O-]` gave miR-21 FLuc -2.7%, GLA inh pH 4.5 4.4, Rango-impB inh 9.2% and Rango dissoc inh -12.6%.
For COCCN(C(=O)CSc1nnc(-c2ccccc2OC)o1)c1c(N)n(CC(C)C)c(=O)[nH]c1=O the results were Rango-impB inh 6.0% and Rango dissoc inh 7.6%.
Cc1c(NC(=O)CSc2nnc(C(C)Oc3ccc(Cl)cc3)n2-c2ccccc2)c(=O)n(-c2ccccc2)n1C (stereo unspecified) was read as miR-21 FLuc 3.0%, GLA inh pH 4.5 -9.0, Rango-impB inh -0.3% and Rango dissoc inh 2.9%.
Screening Cc1ccc(CNC(=O)c2ccc(N3CCC4(CC3)CC(c3cccc(Br)c3)=NO4)c(NC(=O)c3ccc(Br)cc3)c2)cc1 returned Rango-impB inh -0.2% and Rango dissoc inh 1.1%.

Later entries.
`Cc1c(C)n(C)c2ccc(C(=O)NCCCN3CCCC3)cc12` gave miR-21 FLuc -1.6%, Rango-impB inh -0.8% and Rango dissoc inh -0.4%.
`Cc1ccc(C(=O)CSc2nnc(-c3c[nH]c4ccccc34)o2)cc1` gave miR-21 FLuc -0.7%, GLA inh pH 4.5 11.8, Rango-impB inh 0.3% and Rango dissoc inh 11.0%.
For CCn1c(COc2ccc(C)cc2)nnc1SCc1ccc(C#N)cc1 the results were miR-21 FLuc 0.5%, GLA inh pH 4.5 -4.7, Rango-impB inh 1.3% and Rango dissoc inh -15.1%.
For COc1ccc(OC)c(-c2cnc(OC(C)(C)C)nc2OC(C)(C)C)c1 the results were miR-21 FLuc 22.6%, GLA inh pH 4.5 -5.2, Rango-impB inh -1.9% and Rango dissoc inh 0.1%.
Screening COc1ccc(NC(=O)CCCN2C(=O)CN(C)C2=O)cc1Cl returned Rango-impB inh -1.3% and Rango dissoc inh -8.3%.
CCOCC(=O)OCC(=O)NC12CC3CC(CC(C3)C1)C2 was read as miR-21 FLuc -2.2%, GLA inh pH 4.5 5.7, Rango-impB inh -3.2% and Rango dissoc inh 28.9%.
`CC1(C)Nc2ccccc2C(=O)N1NC(=O)c1ccccc1` gave miR-21 FLuc -3.4%, GLA inh pH 4.5 3.0, Rango-impB inh -0.5% and Rango dissoc inh -7.3%.
`Cc1ccc(C(C)C)cc1OCC(=O)N/N=C/c1ccc2c(c1)OCCO2` gave miR-21 FLuc -7.4%, GLA inh pH 4.5 -11.8, Rango-impB inh -3.4% and Rango dissoc inh 38.7%.
Screening COc1ccc(CN(C)S(=O)(=O)c2nnc(NC(=O)c3cccc(OC)c3)s2)cc1 returned miR-21 FLuc -5.2%, Rango-impB inh -4.3% and Rango dissoc inh 4.9%.
Screening COc1ccc2[nH]c3c(c2c1)CCN1C(=O)C(CC(=O)NCc2ccc(OC)c(OC)c2)C[C@H](C(=O)N2CCOCC2)[C@@]31C (stereo partly specified) returned Rango-impB inh 3.6% and Rango dissoc inh 15.5%.
Screening Cc1cc(NC(=O)COc2ccc(Cl)cc2Cl)n(CCC#N)n1 returned miR-21 FLuc -16.3%, GLA inh pH 4.5 -7.4, Rango-impB inh -0.1% and Rango dissoc inh 20.2%.
Screening Cc1cc(NCc2ccco2)n2c(nc3ccccc32)c1C#N returned miR-21 FLuc 0.7%, GLA inh pH 4.5 23.7, Rango-impB inh inconclusive and Rango dissoc inh inconclusive.
For O=C(/C=C/c1ccccc1)OCC(=O)c1c[nH]c2ccccc12 the results were Rango-impB inh -0.6% and Rango dissoc inh -6.2%.
O=C(CSc1nnc(-c2ccco2)o1)N1CCCCC1 was read as miR-21 FLuc -53.6%, Rango-impB inh -1.6% and Rango dissoc inh -0.5%.
For COc1ccccc1Nc1ncnc2ccc(C)cc12 the results were miR-21 FLuc -6.5%, GLA inh pH 4.5 15.5, Rango-impB inh -0.8% and Rango dissoc inh -6.1%.
